# Compound activity: PubChem BioAssay, National Center for Advancing Translational Sciences (NCATS)
# D2 ag: activates the human D2 dopamine receptor; 360,000 compounds, 0.084% hits; activation, % (concentration not given with the values); P14416; DiscoveRx PathHunter D2 beta-arrestin, luminescence, 90 min; 100% = 57 uM dopamine signal; in the data active = activation above about 40%; inconclusive = about 15% to 40%; inactive = below about 15%; note: the text of the record calls up to 30% inactive
# Target sequence (P14416 whole entry, looked up): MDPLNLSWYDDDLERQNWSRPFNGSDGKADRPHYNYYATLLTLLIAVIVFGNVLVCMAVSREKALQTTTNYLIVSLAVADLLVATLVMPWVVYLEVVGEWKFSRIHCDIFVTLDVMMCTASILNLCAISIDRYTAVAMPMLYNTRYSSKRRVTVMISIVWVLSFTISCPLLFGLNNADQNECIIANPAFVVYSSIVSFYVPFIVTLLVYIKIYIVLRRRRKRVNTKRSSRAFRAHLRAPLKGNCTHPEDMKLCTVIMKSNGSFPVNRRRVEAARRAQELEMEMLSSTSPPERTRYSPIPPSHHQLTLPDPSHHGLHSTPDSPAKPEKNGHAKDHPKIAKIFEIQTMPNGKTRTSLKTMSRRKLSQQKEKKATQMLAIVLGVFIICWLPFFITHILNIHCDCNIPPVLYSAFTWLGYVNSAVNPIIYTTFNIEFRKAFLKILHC
#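 DiscoveRx PathHunter D2 beta-arrestin cells (2,100/well) attached overnight, then compound-stimulated 90 min at 37 C in HBSS/10 mM HEPES/0.1% Tween-20 buffer; beta-galactosidase complementation read by luminescence after 1 h at ambient temperature. Dopamine 57 uM final (EC100) as control.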
# PINK1 expr mod: modulators of PINK1 expression | PINK1 immunofluorescence, high-content cytometry, 24 h | Potency, µM (titrated, usually from 76.6 µM), for the others: at the top dose activation (PINK1 increase), actives largely listed as activators | 410,000 compounds, 0.2% hits | AID 624263; active = well fitted activation curve with a large enough effect; inconclusive = small, poorly fitted or top-dose-only effect; inactive = flat fitted curve, though single readings scatter; cell line not stated here;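 note: potency is the fitted concentration of half-maximal effect; % of control where 0% means no effect; nearly all actives have a fitted effect of over 65% in size; a mitochondrial uncoupler was the plate control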
#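 A stable cell line was treated with compounds at 5 concentrations for 24 hours, with CCCP as control. PINK1 levels and mitochondrial localization were measured by immunofluorescence with mitochondrial, cell and nuclear markers after fixation, read by laser-scanning cytometry.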
# Menin MLL FP FL: menin-MLL binding inhibition, fluorescein peptide; Fluorescence polarization, fluorescein-MLL peptide displacement from menin; FP activity change, % at 61.4 µM; 290,000 tested, under 10 active; AID 1766; inconclusive = falling polarisation curve, or a change in total fluorescence; inactive = total fluorescence flat and polarisation flat or rising; no compound was filed as active; the % refers to the polarisation; negative = inhibition;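 note: % of control where 0% means no effect; inhibitors lower the polarisation; unlabelled MLL peptide was the positive control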
# gsp antagonist: antagonists of gsp mutant (McCune-Albright syndrome) | Potency, µM (titrated, usually from 76.9 µM), for the others: top-dose activity change, negative = inhibition, usual class: inhibitors | gsp-mutant cells, cAMP HTRF, 30 min; control for the full effect not named in the record | 340,000 compounds, 0.4% hits; active = falling curve of any shape with a large fitted effect; inconclusive = falling curve, mostly with a smaller effect; inactive = flat or rising curve; cell line not stated here;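 note: intracellular cAMP measured with PDE inhibitor Ro 20-1724 present during compound exposure; potency is the fitted concentration of half-maximal effect; % is set by controls: 0 for no effect and ±100 for the full control effect; nearly all actives have a fitted effect of over 65% in size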
#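 Cells in G418 medium, seeded 16-24 h, 37C; buffer exchange to DPBS + 1 mM CaCl2, 0.5 mM MgCl2, 0.05% BSA; cpds in DMSO + […] (300 uM stock), 30 min 37C; HTRF cAMP detection.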
# Sfp inh: inhibitors of Bacillus subtilis Sfp phosphopantetheinyl transferase; Biochemical Sfp PPTase activity, qHTS; Potency, µM, without a hit: max response, negative = inhibition, usual class: inhibitors; 310,000 compounds, 3.5% hits; AID 1490; active = well fitted inhibition curve with a large enough effect; inconclusive = small, poorly fitted or top-dose-only effect, or another doubt; inactive = no such curve, though single readings can be large or run the other way;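 note: the enzyme is Sfp with the accession as filed and its product quenches rhodamine fluorescence; potency is the fitted concentration of half-maximal effect; 0% = enzyme reaction without inhibitor and -100% = no enzyme wells; top concentration of the series not given in the record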
#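 Step 1, compound plus 15 nM Sfp-PPTase, 15 min, room temperature. Step 2, add rhodamine-CoA (5 uM) and BHQ-2-YbbR (12.5 uM). Step 3, read 525/598 nm fluorescence at 0 and 30 min.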
# ClpP mod: qHTS Assay for Activators of ClpP | ATP-dependent Clp protease proteolytic subunit (Bacillus subtilis (strain 168)), P80244 | purified B. subtilis ClpP, FRET peptide cleavage, 20 min | Potency, µM (top dose mostly 57.5 µM), inactives show at the highest dose activity change, negative = active | 340,000 compounds, 1.9% hits; active = well fitted falling curve with a large enough effect; inconclusive = small, poorly fitted or top-dose-only effect; inactive = no such curve, though single readings can be large or run the other way; note: potency is the fitted concentration of half-maximal effect; the source files actives as falling curves though it sought activators and does not explain the sign; nearly all actives have a fitted effect of over 65% in size; many hits overshoot -100%
# Target sequence (P80244 whole entry, looked up): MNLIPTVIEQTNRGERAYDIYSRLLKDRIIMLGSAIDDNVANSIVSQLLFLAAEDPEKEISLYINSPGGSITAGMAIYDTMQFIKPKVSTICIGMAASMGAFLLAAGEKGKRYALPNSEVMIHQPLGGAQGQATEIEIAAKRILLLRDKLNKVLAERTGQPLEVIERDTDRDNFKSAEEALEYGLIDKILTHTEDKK
#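 FRET quenching reversal measured ClpP activation: 10 microg/mL B. subtilis ClpP at pH 8 with the FRET-FV decapeptide, read at 430 nm after 320 nm excitation. The 20-min minus 0-min signal was scaled between DMSO/no-enzyme wells and ADEP (5.8 microM final).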
# gsp ag: activates gsp, the McCune-Albright syndrome mutation | gsp mutant cells, cAMP HTRF, 30 min; control for the full effect not named in the record | Potency, µM (highest dose often 76.9 µM), without a hit: top-dose activation (cAMP increase), actives largely listed as activators | 340,000 compounds, 0.13% hits | AID 624287; active = well fitted activation curve with a large enough effect; inconclusive = small, poorly fitted or top-dose-only effect, or another doubt; inactive = no such curve, though single readings can be large or run the other way; cell line not stated here;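 note: phosphodiesterase inhibitor Ro 20-1724 added with compounds to block cAMP breakdown; potency is the fitted concentration of half-maximal effect; nearly all actives have a fitted effect of over 60% in size; about a fifth of the inactives were tested at one dose only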
#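 Cells in DMEM/10% FBS with G418 were pretreated with compounds in DMSO plus […] (300 uM stock) for 30 min at 37C. cAMP was measured by HTRF (cAMP-d2 plus anti-cAMP antibody-K) after 30 min at room temperature.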
# Starred values were filed as active, the others as inactive; ? = inconclusive; . = not tested or not shown; & = joins results of further samples; [ ] = remark or other dose.
SMILES,D2 ag,PINK1 expr mod,Menin MLL FP FL,gsp antagonist,Sfp inh,ClpP mod,gsp ag
O=C(Nc1ccncc1)Nc1ccc(Cl)cc1,10,-1.4%,0.4,7%,1%,0.4%,14%
COc1ccc(C(CNC(=O)c2oc3cc(C)c(C)cc3c2C)N2CCCCC2)cc1 (stereo unspecified),-8.3,-0.5%&0.2%,2.2,3%,-18%,-0.7%&1.1%,-36%[inhibitor]
COc1ccc(C(=O)Nc2c(N)nc(SCC(=O)NCC3CCCO3)[nH]c2=O)cc1OC (stereo unspecified),-3.5,0.4%,.,8%,-30%,0.4%,-4%[15.4 µM]
COc1cccc(Nc2nnc(SCc3cc([N+](=O)[O-])cc4c3OCOC4)s2)c1,-3.2,22%,0.7,-6%,16%,-1.0%,-10%
Cc1ccc(CCNC(=O)C2CC(=O)N(CCc3ccccc3)C2)cc1 (stereo unspecified),-6.6,1.7%&6.0%,0.4,5%,19%,3.9%&0.0%,20%
Cc1oc(-c2ccccc2Cl)nc1CSCC(=O)NC1CCCC1,-2.4,-1.8%,1.7,-20%,17%,3.1%,13%
CCC1CCCCN1C(=O)COC(=O)c1cncc(Br)c1 (stereo unspecified),0.3,-0.2%,.,.,.,-0.9%,-77%[inhibitor]
Cc1ccn(CCSCC(=O)O)n1,3.5,-3.6%,2.9,11%,-3%,-2.6%,12%
CN(CC(=O)Nc1c(Cl)cccc1Cl)CC(=O)N1CCc2ccccc21,-0.7,0.3%,.,.,.,0.8%,-60%[inhibitor]
CCOC(=O)c1ccsc1NC(=O)CCS(=O)(=O)c1ccccc1,-4.1,18%,1.3,0%,2%,-4.0%,-15%
O=S(=O)(c1c(F)cccc1F)N1CCN(C(=S)NCc2ccc3c(c2)OCO3)CC1,-1.9,0.5%,-2.0,-14%,-4%,.,9%
CN1CCN(NC(=O)Nc2ccc(Br)cc2Cl)CC1,-5.9,0.8%,3.1,14%,10%,1.4%,-41%[inhibitor]
Cc1cc(N2CCCN(C)CC2)nc2cc(Cl)ccc12,0.1,-1.3%[38.3 µM],3.6,9%,-15%,32µM*,-16%
C(#CC12CC3CC(CC(C3)C1)C2)CN1CCOCC1,-0.5,2.6%,-7.9,13%,8%,-0.1%,15%
COC(=O)CSc1cc(C(=O)c2nccn2C)c2ccccc2n1,3.8,-0.4%,3.9,-22%,5%,-3.8%,8%
O=S(=O)(/N=C(/Nc1ccc(Cl)c(S(=O)(=O)N2CCOCC2)c1)c1ccc(F)cc1)c1ccccc1,-0.1,0.9%,.,?,5%,-0.2%,-2%
CCC(C)c1ccccc1NC(=O)CN1CCN(C/C=C/c2ccccc2)CC1 (stereo unspecified),-0.2,0.3%,3.9,-13%,5%,.,1%[15.4 µM]
O=C(NCCS(=O)(=O)NCc1cccs1)c1ccccc1,-3.3,1.6%,.,.,.,0.7%,?
CS(=O)(=O)c1ccc(NS(=O)(=O)c2ccc3ccccc3c2)cc1,2.2,0.1%,-10,-8%,3%,.,-17%[15.4 µM]
C=CCNC(=S)NNC(=O)CSc1nc2ccccc2s1,-5.2,-0.1%,0.8,-7%,5%,0.2%,3%[15.4 µM]
CC1CCCCC1NC(=O)CCCn1c(=S)[nH]c2ccsc2c1=O (stereo unspecified),5.2,1.8%,-0.7,-13%,-1%,-0.3%,?
CCOC(=O)Cc1csc(NC(=O)c2cc(C)c(C)s2)n1,-0.3,3.1%,.,-19%,.,28µM*,-9%
Cc1ccc2nc3nc(NCC4CCCO4)c(C(=O)NC4CCCC4)cc3c(=O)n2c1 (stereo unspecified),-0.5,3.2%,1.9,6%,-18%,?,-1%
CCN(CC)Cc1c(O)c(Cl)cc2c3c(c(=O)oc12)CCCC3,-1.2,2.1%,4.9,3%,-1%,31%,16%
COCCn1c(SCC#N)nnc1-c1ccccc1,-1.6,0.5%[38.3 µM],1.3,-10%,4%,0.6%,?
CCOC(=O)c1c(NC(=O)COC(=O)c2nc(Cl)ccc2Cl)sc2c1CCC2,-3.9,-0.4%,-20,15%,?,-16%,-3%
CC(=O)Nc1cccc(NC(=O)c2ccccc2OCc2ccccc2)c1,0.3,-0.4%,-1.7,-28%,-1%,.,?
C=CCn1c(C)c(C(C)=O)c(N2CCN(C(c3ccccc3)c3ccccc3)CC2)nc1=S,-2.9,2.2%,?,.,2%,.,3%[15.4 µM]
Cc1[nH][nH]c(=O)c1C(c1ccc(Br)cc1)c1c(C)[nH][nH]c1=O,-1.8,0.2%,-1.0,12%,3%,.,-56%[inhibitor]
CCOC(=O)[C@@H]1CCN(Cc2ccccc2)C[C@H]1c1ccccc1,-6.0,?,0.8,11%,?,-2.0%,-4%[15.4 µM]
CN1CCC(=NNC(=O)CSc2ccc(Cl)cc2)CC1,-1.3,0.2%,-1.9,.,19%,.,7%[15.4 µM]
O=C(O)c1ccc(NS(=O)(=O)c2ccc(Cl)c(Cl)c2)cc1O,-5.9,0.0%,1.7,9%,4%,-2.2%,-1%
Cc1cc(C)cc(NC(=O)COC(=O)Cc2ccccc2F)c1,-2.1,4.1%,.,3%,.,1.0%,4%
NS(=O)(=O)c1ccc(-c2c(-c3ccccc3)sc3ccccc23)cc1,-3.8,3.2%,.,-13%,.,-13%,.
c1ccc(C2Nc3ccccc3-c3nc4ccccc4n32)cc1 (stereo unspecified),-1.8,-1.8%,0.9,?,8%,61%,8%
CCOC(=O)c1sc(NC(=O)CSc2nncs2)c(C(=O)OCC)c1C,-2.2,8.8%,7.3,3%,-3%,1.0%,-23%
Cc1ccc(-c2cc(C(=O)N(C)CC(=O)Nc3ccccc3Br)c3ccccc3n2)o1,-7.2,1.0%,.,-14%,.,25µM*,?
O=[N+]([O-])c1cc2ncccc2c2ncccc12,15,1.3%,.,.,.,0.1%,?
CCOc1ccc(OCCCC(=O)Nc2cc(Cl)ccc2-n2cncn2)cc1,6.2,0.6%,.,?,.,-3.0%,4%
C[C@H](CO)N1C[C@H](C)[C@@H](CN(C)Cc2ccc(Cl)c(Cl)c2)Oc2c(NC(=O)C3CC3)cccc2C1=O,0.4,0.6%,.,?,.,0.7%,.
COc1ccc(S(=O)(=O)N2CCOCC2)cc1Br,1.4,3.8%,-1.8,-2%,17%,.,?
N#Cc1ccc(-c2nc3c4ccccc4ccn3c2Cc2ccccc2C(F)(F)F)cc1,1.6,3.8%,.,.,.,-7.6%,.
CCOc1cc(-c2nc(-c3ccccc3OC)no2)cc(OCC)c1OCC,-0.2,14%,-1.1,4%,?,?,?
CCN(CC)CCNC(=O)c1nn(-c2ccc(C)cc2)c(=O)c2c1c1ccccc1n2C,-2.5,9.0%,1.0,13%,7%,-18%,27%
O=C(COc1cccc(F)c1)Nc1nc(-c2ccncc2)cs1,-2.1,11%,.,-4%,.,-1.2%,-14%
O=C(CSc1nnc(NC(=O)c2ccc(F)cc2F)s1)NC1CCCC1,-0.8,0.3%,-4.3,-26%,10%,.,9%[15.4 µM]
CC(C)=CCN1CCN(Cc2cn(C(C)C)c3ccccc23)CC1CCO (stereo unspecified),-2.8,2.0%,1.8,7%,19%,-3.4%,-39%[inhibitor]
COc1cccc(-c2c(C(=O)N/N=C(\C)c3ccco3)nnn2-c2nonc2N)c1,-1.5,0.1%,0.6,-4%,3%,1.6%,?
Cc1ccc(N(CC(=O)NCCSCc2ccco2)S(C)(=O)=O)cc1,-1.7,-4.0%[38.3 µM],8.4,-5%,-18%,-0.7%,-27%
O=C(NCc1ccco1)C(=O)NCC1OCCCN1S(=O)(=O)c1ccc(F)cc1 (stereo unspecified),-4.1,-0.7%,-2.7,-5%,13%,0.1%,-18%
O=C(O)CSc1nnc(-c2cccc(S(=O)(=O)N3CCOCC3)c2)n1-c1ccc(F)cc1,4.6,3.3%,.,6%,.,1.9%,-16%
CCc1nc2ccc(C(=O)NCc3cccs3)cn2c1N(CCC(C)C)CCN(C)C,-4.4,3.9%,.,.,.,-6.7%,.
Cc1ccc(C)c(S(=O)(=O)N2CCN(C(=O)CCC(=O)c3cc(C)sc3C)CC2)c1,4.7,0.1%,.,-17%,.,-0.2%,-4%[15.4 µM]
O=Nc1c(-c2ccccc2)cc2ccccn12,-6.7,4.3%,0.8,?,-10%,0.6%,-1%
COc1cc(OC)cc(C(=O)OCC(=O)NC(C)CCc2ccccc2)c1 (stereo unspecified),4.8,1.7%,-3.1,?,15%,.,3%[15.4 µM]
COc1ccc2oc(=O)c(C(=O)NCc3ccc(C)cc3)cc2c1,-2.6,4.0%,-2.7,4%,-4%,?,-8%
Cc1cccc(C(=O)NC(=S)Nc2ccc(S(=O)(=O)N3CCCCC3)cc2)c1,-1.9,-0.9%,-0.6,-15%,5%,-16%,-3%
O=C(Nc1cccc(C(=O)N2CCCC2)c1)c1ccccc1,0.5,1.1%[38.3 µM],3.3,-26%,16%,1.7%,-57%[inhibitor]
COc1ccc(C2CC(c3ccccc3)=NN2C(=O)COC(=O)CNC(=O)c2ccccc2)cc1 (stereo unspecified),-2.0,0.2%,3.7,-24%,6%,?,?
CCO[C@H]1OC(C(=O)N2CCOCC2)=C[C@@H](C)[C@@H]1CCCO,-4.3,-1.1%,3.3,-9%,7%,-3.8%,11%
Cc1ccc2c(c1)nnn2C1CCN(CC(=O)NCc2ccccc2F)CC1,-2.5,2.9%,-1.9,3%,1%,.,18%
Cc1ccc(C)c(N2CCN(S(=O)(=O)c3cc4c(cc3Cl)NC(=O)CO4)CC2)c1,-4.1,1.1%,-3.0,-1%,20%,-1.1%,2%
CC(NC(=O)COC(=O)CCc1ccccc1)c1ccccc1 (stereo unspecified),-1.7,-2.1%,6.9,18%,-2%,-0.4%,0%[15.4 µM]
